From PubChem BioAssay
Tgondii IFNg: T. gondii growth inhibition with IFN-gamma, primary screen, cell-based; Toxoplasma gondii growth in IFN-gamma-treated host cells; active compounds read low; reference of the scale not given here; hit rate 3.8% among 69,000; activity change, negative = inhibition, %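 (about 20 µM by stock and volumes)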;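 active = below -70%; inconclusive = fit judged invalid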;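 also: host cells are HeLa cells infected with Toxoplasma gondii; parasite growth read as luciferase light; one replicate is shown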
* = called active by the depositor; ? = inconclusive; & = joins results of further samples. Some of the compounds tested; rates above refer to the full screens.

Sample of the layout (3 entries):
SMILES	Tgondii IFNg
Cc1nn(C(C)CNC(=O)CN=C2NS(=O)(=O)c3ccccc32)c(C)c1C (stereo not given)	-3
Nc1nnc(CC(=O)N2Cc3ccccc3OC3(CCOCC3)C2)s1	56
CCS(=O)(=O)N1CCC2(CC1)OC(=O)C(C)=C2C(=O)NCCc1ccc(Cl)cc1	40

All compounds of this part, previewed entries included:
SMILES	Tgondii IFNg
Cc1nn(C(C)CNC(=O)CN=C2NS(=O)(=O)c3ccccc32)c(C)c1C (stereo not given)	-3
Nc1nnc(CC(=O)N2Cc3ccccc3OC3(CCOCC3)C2)s1	56
CCS(=O)(=O)N1CCC2(CC1)OC(=O)C(C)=C2C(=O)NCCc1ccc(Cl)cc1	40
CCC(C(=O)Nc1ccc2c(c1)CCC(=O)N2CCOC)c1ccccc1 (stereo not given)	-3
O=C1N[C@@H](c2ccccc2)COCc2cnnn2CC[C@H]1Cc1ccc(C(F)(F)F)cc1	-19
CCOC(=O)N1CCC(NC(c2cccnc2)c2ccc(C)c(C)c2)CC1 (stereo not given)	-31
COc1cccc(-n2c(=O)c(C(=O)Nc3cccc(C)c3)c(O)c3cccnc32)c1	47
CN(C(=O)CCC(=O)Nc1nncs1)C1CCCCCC1	-4
CO[C@@H]1CC[C@@H]2CCN(C)C(=O)[C@@H](C)CN(C)C(=O)c3cc(C#N)ccc3OC[C@@H]1O2	-12
O=S(=O)(c1ccc(Cl)cc1)N1c2ccccc2OC1c1ccc(Cl)c(Cl)c1 (stereo not given)	-18
Cn1cc(-c2cc(-c3ccccc3)nn2-c2ccccc2)c2ccccc21	9
CNC(=O)c1cc(=O)n(CC(=O)Nc2ccccc2C(F)(F)F)c2ccccc12	3
COc1cc(C(C)=O)ccc1O	11
O=S(=O)(NCc1cc(F)cc2c1OCOC2)c1ccc(-c2ccccn2)s1	12
C[C@@H]1CN([C@@H](C)CO)S(=O)(=O)c2ccc(-c3ccc(F)cc3)cc2O[C@H]1CN(C)Cc1ccccc1C(=O)O	-15
COc1ccc(CNC2=NCCNC23CCN(S(=O)(=O)c2ccc(C(C)C)cc2)CC3)cc1	-14
CC1=NNC(=O)C1Oc1ccc(Cl)cc1Cl (stereo not given)	118
O=C(CCN1CCCCO1)NCCc1cnc[nH]1	-2
CC[C@H](C)C(=O)O[C@H]1CCC=C2C=C[C@H](C)[C@H](CC[C@@H]3C[C@@H](O)CC(=O)O3)[C@H]21	22&21&-64
Cc1ccc(C2(C(=O)N3CCC(c4onc5c4CCCC5)CC3)CCCC2)cc1	-44

Four entries from above, sorted by length of the SMILES, high to low.
SMILES	Tgondii IFNg
COc1cccc(-n2c(=O)c(C(=O)Nc3cccc(C)c3)c(O)c3cccnc32)c1	47
Cc1nn(C(C)CNC(=O)CN=C2NS(=O)(=O)c3ccccc32)c(C)c1C (stereo not given)	-3
O=S(=O)(NCc1cc(F)cc2c1OCOC2)c1ccc(-c2ccccn2)s1	12
CC1=NNC(=O)C1Oc1ccc(Cl)cc1Cl (stereo not given)	118

Next section:
SMILES	Tgondii IFNg
CCOC(=O)c1cc(C)nc2c1c(=O)n(Cc1nc(-c3cccc(Cl)c3)oc1C)c(=O)n2C	10
CN(C)S(=O)(=O)c1ccc2c(c1)cc(C(=O)NCc1ccccc1)n2Cc1ccncc1	-13
Cc1cnn(Cc2nc(-c3ccc(NC(=O)c4cc(C)on4)cc3)oc2C)c1	-95*
COCC1CN(C(=O)c2cc(C)on2)Cc2nnn(CC3CC3)c21 (stereo not given)	2
CCC1=Nc2ccc(Br)cc2C(c2ccccc2)N1CC(=O)OC (stereo not given)	-42
CN(C)C[C@@]12COC[C@@H]1CN(C(=O)COC1CCCC1)C2	0
O=C(COCC1COc2ccccc2O1)N1CCC(Oc2cccnc2)CC1 (stereo not given)	2
COc1cc2c(cc1OC)CN(CC(=O)Nc1cc(C)cc3cccnc13)CC2	19
O=C(c1ccco1)N1CC[C@@H]2CN(Cc3cccnc3)CCO[C@@H]2C1	68
FC(F)OC(Cl)C(F)(F)F (stereo not given)	-12
Cc1ccccc1N=C1SC(C)CN1C(=O)Nc1ccc(Cl)c(Cl)c1 (stereo not given)	-24
O=C(c1ccccc1)N1CCC2(CC(=O)N(c3ccc4c(c3)OCO4)C2)C1 (stereo not given)	23
COc1cc(Cl)ccc1C(=O)NCC1CCCN(C)C1 (stereo not given)	-2
Cc1ccc(C(=O)c2ccccc2C(=O)N2CCC(CN)C2)cc1 (stereo not given)	-9
COc1ccc(CCC(=O)N2CCN(S(=O)(=O)c3cc4c5c(c3)CCC(=O)N5CCC4)CC2)cc1	6
COc1ccc(N2CCC(NCCN(C)S(C)(=O)=O)CC2)cc1	-17
Cc1ccc(CN2CCCn3c(nc(Cn4ccnc4)cc3=O)C2)s1	-3
COCCCn1c(=O)c2ccccc2n(Cc2cc(C(=O)OC)ccc2OC)c1=O	-5
COC(c1ccc2c(c1)CN(C(=O)Cn1nc(C)c3ccccc3c1=O)CCO2)C1CCCCC1 (stereo not given)	-47
CC1CCN(c2ncc(-c3cncn3CCCC(C)(C)CO)cn2)CC1	-8

In the list so far, these contain a thiophene ring, fused or not:
SMILES	Tgondii IFNg
O=S(=O)(NCc1cc(F)cc2c1OCOC2)c1ccc(-c2ccccn2)s1	12
Cc1ccc(CN2CCCn3c(nc(Cn4ccnc4)cc3=O)C2)s1	-3

Other entries follow.
SMILES	Tgondii IFNg
Cc1ccc(NC(=O)N2CCC(c3nc(C(=O)N4CCCC4)c(C)o3)CC2)c(Cl)c1	10
c1ccc(C[C@H]2CN(C3CCOCC3)CC[C@H]2OCC2CC2)cc1	-10
COc1cccc(C(=O)N2CCCC3(C2)Nc2cccnc2NC3=NCc2ccccc2)c1 (stereo not given)	-28
CCC(=O)N(CC(C)C)C[C@H]1[C@H](c2ccccc2)[C@@H](CO)N1C(=O)C1CCC1	-1
O=C(Nc1ccccc1-c1nc2ccccc2[nH]c1=O)c1cccs1	-9
c1ccc(-c2nnn3c2COC(CNCc2ccsc2)C3)cc1 (stereo not given)	-48
COc1ccc(NC(=O)N2CCC3(CC2)Nc2cc(C)ccc2-n2cccc23)c(OC)c1	105
CCc1ccc(CN2Cc3ccccc3C3(CCN(S(=O)(=O)N(C)C)CC3)C2)o1	-6
Cc1cccc(-c2nc(C)c(CCNC(=O)C(=O)Nc3ccccc3Cl)s2)c1	23
CC=Cc1ccc2n(c1=O)C[C@H]1[C@H](CO)[C@@H](C(=O)N[C@H](C)c3ccccc3)N(C(=O)c3ccccn3)[C@@H]21 (mixture of isomers)	-9
COc1ccc(Oc2cc(C(F)(F)F)ccn2)cc1	-35
CCS(=O)(=O)N1CCC2(CC1)Nc1ccc(C)c(C)c1-n1cccc12	28
Cc1nn(C)c(Cl)c1S(=O)(=O)N1CCC2(CC1)NCCNC2=O	10
Cc1oc2c(c1C(=O)N1CCCC(N(C)CCN(C)C)C1)C(=O)CCC2 (stereo not given)	2
Cc1ccccc1-c1noc(CCC(=O)NC(C)Cc2ncccc2C)n1 (stereo not given)	3
C=CCn1c(SCC(=O)OCC)nc2sc3c(c2c1=O)CC(C)(C)OC3	-7
CCN(CC)C(=O)Cn1cc(-c2nc(-c3ccccc3C)no2)nn1	2
CS(=O)(=O)N1CC[C@H]2O[C@@H](COCc3ccncc3)CC[C@H]21	-42
O=C(CSc1nc(=O)c2ccccc2s1)NC12CC3CC(CC(C3)C1)C2	20
COc1cccc(Nc2nc(N)nc(CSc3nc4ccccc4o3)n2)c1	15
Cc1ccccc1N1CCN(C(=O)CCC2CCCCN2C)CC1 (stereo not given)	-47
Cc1ccc(OCCNC(=O)C(C)Cn2cccn2)cc1 (stereo not given)	25
O=C(CC1N=C2c3ccccc3N=C(SCc3ccccc3Cl)N2C1=O)NCc1ccccc1 (stereo not given)	-17
Cc1oc2c(F)c(F)c(F)c(F)c2c1S(=O)(=O)Oc1ccc(C#N)cc1	5
C[C@H]1CN([C@@H](C)CO)C(=O)c2cc(-c3cccc(C(=O)N(C)C)c3)cnc2O[C@H]1CN(C)C(=O)Cc1ccccn1	41
CCSc1nc(CC(=O)NCCc2nc(C)c(C)s2)cs1	32
Cc1noc(C)c1NC(=O)Nc1ccc2c(c1)C(=O)N([C@H](C)CO)C[C@@H](C)[C@H](CN(C)S(=O)(=O)c1ccc(F)cc1)O2	4
CC(C)CC#Cc1ccc([C@@H]2[C@@H](CO)N3C(=O)CN(C(=O)Nc4cc(F)ccc4F)C[C@H]23)cc1	5
COc1ccc(C2N(c3ccc(C)cc3)CCN2c2ccc(C)cc2)cc1OC	54
CC1=C(C(=O)NCCCN2CCCC2)C2(CCN(Cc3ccccc3)CC2)OC1=O	13
CC(C)C1CN(C(=O)c2cnn3cc(CCO)cnc23)CCCN1CC1CC1 (stereo not given)	6
Cc1ccc(-n2[nH]c(C)c(N=Nc3cccc(-c4cccc(C(=O)O)c4)c3O)c2=O)cc1C	?
CCn1c(SCc2nc(-c3ccccc3Cl)oc2C)nc2c(=O)[nH]cnc21	14
C[C@@H]1CN([C@@H](C)CO)C(=O)c2cc(/C=C/c3ccccc3)cnc2O[C@@H]1CN(C)S(=O)(=O)c1ccccc1F	-7
CCOc1ccc(-c2noc(-c3c(O)c4ccccc4n(CC)c3=O)n2)cc1OC	20
C=CCSC1=NC2(CC(c3ccc(OC)cc3)c3ccc(O)c(C)c3O2)CC(C)(C)N1 (stereo not given)	-51
O=S(=O)(NCc1ccc2c(c1)OCO2)c1cc(Cl)sc1Cl	-55
OC(CCCN1CCCCC1)(c1ccccc1)c1ccccc1	0&10
O=C(c1ccnnc1)N1CCc2ncnc(-c3cccc(F)c3)c2CC1	1
CC(C)c1nccn1CCCNC(=O)c1ccc(-c2ccsc2)nc1	-19
Cc1ccc(CC(=O)NCc2ccco2)cc1	8
Cc1nnnn1-c1ccc(CC(=O)N2CCCCC2CCN2CCCC2)cc1 (stereo not given)	3
CC(C)n1cnc2c(N3CCCC3)nc(C3CCN(C(=O)N(C)C)CC3)cc21	2
c1ccc(-n2ncnc2-c2csc(-c3ccncc3)n2)cc1	-93*
CN1CCN(CC2(CNC(=O)c3c(O)cccc3O)CC2)CC1	11
COc1ccccc1-c1nc(C)c(-c2ccc(SCc3ccc(F)cc3)nn2)s1	1
Cc1[nH]n(C)c(=O)c1C(=O)c1c(-c2c(Cl)cccc2Cl)noc1C	62
COc1ccc2c3c([nH]c2c1)[C@@H](CO)N(Cc1cccnc1)CC31CCN(C(=O)CN(C)C)CC1	103
COc1ccc2[nH]c(C(=O)Nc3cc(C)nc(C)n3)cc2c1	29
Cc1ccc(S(=O)(=O)N[C@@H]2CC[C@@H](CC(=O)NCc3ccncn3)O[C@@H]2CO)cc1	-40
Cc1ccc(CN2CCc3nc(NC(C)C)nc(C)c3C2)s1	-6
C[C@H]1CN([C@@H](C)CO)C(=O)c2cc(NC(=O)Nc3ccccc3)ccc2O[C@H]1CN(C)Cc1ccccc1	12
O=C1NCC2(CCCN(C(=O)CCCCc3ccccc3)CC2)O1 (stereo not given)	-41
CC(C)Nc1ncccn1	9&26
COc1ccc(-c2nccn2CCN2CCCCC2)c(OC)c1OC	4
Cc1cc(C)n(Cc2nc(-c3ccc(NC(=O)c4cc(F)ccc4Cl)cc3)oc2C)n1	9
COc1ccc(-c2nc(C)c(-c3ccc(SCc4ccccc4Cl)nn3)s2)cc1	-44
CC(C)=CCC(C#N)(CC=C(C)C)C(=O)O	32
Cc1ccc(C(=O)Nc2ccc(N3CCC(NCC4CCOCC4)CC3)cc2)c(C)c1	5
Cc1cnc(C(=O)N2Cc3nc4cc(-c5ccc(F)cc5)[nH]n4c(=O)c3C2)cn1	74
(list continues)
SMILES	Tgondii IFNg
COc1ccc(-n2cccn2)c(CN2CCCC(C(=O)N3CCCC3)C2)c1 (stereo not given)	-6
Cc1[nH]c2ccc(C(=O)N3CCC[C@]4(CCC(=O)N4)[C@H]3c3cccc(F)c3)cc2c1C	-16
O=C(CCn1cc(Cl)cn1)N1CC[C@@H](c2ccc3c(c2)OCO3)[C@H](O)C1	-10
CCCNC(=O)N(C)C[C@@H]1Oc2cc(C#C[C@@H](C)O)ccc2S(=O)(=O)N([C@@H](C)CO)C[C@H]1C	-62
O=C(NC1CC1)N1CCOC2(CCCN(c3cccc(F)c3)C2)C1 (stereo not given)	119
CCCCCCCCS/C(=C/C#CCO)CO	16
CCN1CCN(Cc2ccc(NC(=O)C3=C(C)C(=O)OC34CCN(Cc3ccccc3)CC4)cc2)CC1	30
CC(C)CN1CCN(C(=O)c2cccc3[nH]cc(CN4CCCC4)c23)CC1	-7
COc1ccc(CC(=O)NCCc2csc(-c3ccc(F)cc3)n2)cc1	-1
CC(=O)OC(C)C[N+](C)(C)C (stereo not given)	-6&18
CCOC(=O)Nc1cc2c(C)cc(=O)oc2cc1C	-2
Cc1ccsc1CN(C)C(=O)c1n[nH]c2ccccc12	37
CC(C)N(CCN1CCNCC1)C(C)C	-3
COCC(=O)N1CCCC(C2C(=O)Nc3ccccc32)C1 (stereo not given)	2
COCc1nnn2c1CN(Cc1c(C)noc1C)CCC2	-11
CN(C[C@@H]1N[C@H](CO)[C@@H]1c1ccc(C#CCC2CCCC2)cc1)S(C)(=O)=O	1
CSc1ccc(CC2(CCC(=O)N3CCCC3c3nc4ccc(F)cc4[nH]3)CCC(=O)N2)cc1 (stereo not given)	3
CC(C)C12CN3CC(C(C)C)(CN(C1)C31C(=O)Nc3ccccc31)C2=O (stereo not given)	-5
CC(=O)NCc1csc(C2CCN(C(=O)COc3ccc(F)cc3)CC2)n1	-34
Cc1ccc(S(=O)(=O)CCC(=O)NCCn2nc(C)c(Cl)c2C)cc1C	-3
Cc1ccc(CN2CC[C@@H]3C[C@H](C(=O)NCc4ccccn4)O[C@H]3C2)o1	-13

An excerpt from further up, for reference:
SMILES	Tgondii IFNg
Cc1nn(C(C)CNC(=O)CN=C2NS(=O)(=O)c3ccccc32)c(C)c1C (stereo not given)	-3
Nc1nnc(CC(=O)N2Cc3ccccc3OC3(CCOCC3)C2)s1	56
CCS(=O)(=O)N1CCC2(CC1)OC(=O)C(C)=C2C(=O)NCCc1ccc(Cl)cc1	40
